Assay outcomes (PubChem BioAssay)
GALR2 agonist = GALR2 receptor agonists, primary screen, cell-based. GALR2-expressing cells, agonist activation read-out. activation, %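 (tested at 5 µM)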. hit rate 0.48% among 140,000. AID 803, 2007;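 active = above mean plus 3 SD of all compounds, about 5% in these data, not always enough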;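 note: 0% = vehicle buffer wells and 100% = reference agonist at full effect; tested in CHO reporter cells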
RGS16-Gao HTS = modulators of RGS16 binding to Galphao, primary screen, biochemical, human proteins, multiplexed bead flow cytometry | Regulator of G-protein signaling 16 (Homo sapiens) + Guanine nucleotide-binding protein … | bead-based flow cytometry RGS16-Galphao binding, fluorescence; actives lie on both sides | binding response (% of control), % at 10 µM | hit rate 0.38% among 220,000;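 active = below 25% or above 175%, edge rows of some plates excepted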;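 note: Galphao activated by GDP with aluminum fluoride before binding; 100% = wells without compound and 0% = beads without RGS; some results beyond the cut were filed as inactive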
PKD1 inh = inhibitors of human PKD1 kinase, biochemical, fluorescence polarization; Serine/threonine-protein kinase D1 (Homo sapiens), Q15139; AID 797, 2007; inhibition, %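 (about 10 µM by stock and volumes)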; PKD1 kinase fluorescence polarization assay; hit rate 0.056% among 200,000;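 active = inhibition of 50% or more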;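 note: controls were vehicle for no effect and a reference inhibitor for full effect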
Target sequence (Q15139 whole entry, looked up): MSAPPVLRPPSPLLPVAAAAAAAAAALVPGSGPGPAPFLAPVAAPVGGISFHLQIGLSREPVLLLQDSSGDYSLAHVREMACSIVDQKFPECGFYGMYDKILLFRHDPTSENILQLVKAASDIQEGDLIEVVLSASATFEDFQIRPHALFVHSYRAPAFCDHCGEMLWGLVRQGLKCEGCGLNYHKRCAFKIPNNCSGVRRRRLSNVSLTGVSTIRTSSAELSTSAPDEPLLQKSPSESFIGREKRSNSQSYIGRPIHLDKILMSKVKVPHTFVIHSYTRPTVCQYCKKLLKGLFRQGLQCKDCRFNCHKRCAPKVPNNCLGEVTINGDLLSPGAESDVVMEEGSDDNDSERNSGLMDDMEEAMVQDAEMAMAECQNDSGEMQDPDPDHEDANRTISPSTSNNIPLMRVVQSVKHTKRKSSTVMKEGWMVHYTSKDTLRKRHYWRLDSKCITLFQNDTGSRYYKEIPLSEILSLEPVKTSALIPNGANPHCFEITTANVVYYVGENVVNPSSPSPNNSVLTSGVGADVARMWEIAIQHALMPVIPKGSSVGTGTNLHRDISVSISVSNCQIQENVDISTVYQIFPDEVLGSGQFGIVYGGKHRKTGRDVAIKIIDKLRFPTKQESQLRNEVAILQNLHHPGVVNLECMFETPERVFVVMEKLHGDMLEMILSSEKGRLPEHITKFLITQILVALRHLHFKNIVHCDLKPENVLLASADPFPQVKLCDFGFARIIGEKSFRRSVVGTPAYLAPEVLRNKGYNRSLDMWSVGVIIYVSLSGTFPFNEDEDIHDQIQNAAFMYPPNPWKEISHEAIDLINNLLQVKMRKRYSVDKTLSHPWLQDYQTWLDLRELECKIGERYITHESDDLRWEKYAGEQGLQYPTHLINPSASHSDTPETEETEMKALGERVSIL
INS promoter inh = inhibitors of insulin promoter-driven GFP, primary screen, imaging, TRM-6 cells (human fetal islet line), eGFP reporter, cell count; reporter expression induced with tamoxifen; inhibition, % at 2 µM; hit rate 0.9% among 130,000; AID 1273, 2008;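 active = inhibition above the mean plus 3 SD, with well images judged a real hit on visual review, cut at about 60% in these data, passing the limit was not always enough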
HSV replic up = enhancers of HSV replication in host cells, fold increase, host cell viability. HSV replication augmentation in cells. maximum fold increase. hit rate 0.005% among 220,000;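 active = peak rise of 1.5-fold or more in the series; tested in PC3 cells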;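 note: first round at 10 µM; read as green reporter fluorescence; hits show the peak of a series up to 25 µM; 1 = signal of infected wells without compound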
INS promoter inh cell count = recorded beside INS promoter inh, whose call it bears; normalized cell count, %; measured here: cell count, toxicity; reference of the scale not given here;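 cells exposed to compound for 48 h; stained nuclei by imaging scaled within each plate; lower means fewer cells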
HSV replic up primary fold = further read-out of HSV replic up, marked with its call; fold increase; compound at 10 µM; measured here: primary screen fold increase 10 uM; tested in PC3 cells;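 GFP signal in the first replicate; 1 = infected wells without compound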
The depositor's hits bear a star; i = inactive; · = not tested or not shown; & = joins results of further samples.

Molecule	GALR2 agonist	RGS16-Gao HTS	PKD1 inh	INS promoter inh	INS promoter inh cell count	HSV replic up	HSV replic up primary fold
O=C(Cn1cnc(Cl)c1Cl)c1ccc(F)cc1	·	97.2	3.0	·	·	i	0.95
O=C(Nc1ccccc1)c1sc(Cl)nc1-c1ccccc1	-1.0	101.4	2.8	3.1	158.4	i	0.89
CC(C)CC(=O)Nc1ccc(F)c(Cl)c1	-1.5	99.6	-3.5	·	·	i	0.82
CC1(C)OC(=O)CC1C(=O)NCc1ccccc1 (centres undefined)	-2.5	104.6	-1.0	i	39.3	i	0.89
Cc1onc(-c2ccccc2)c1C(=O)NCCc1c[nH]c2ccccc12	-1.1	100.2	-0.7	36.4	122.3	i	1.05
COC(=O)c1c(NC(=O)c2ccco2)sc(C(=O)N2CCCC2)c1C	-2.3	102.5	-9.2	11.8	132.8	i	0.9
Cc1ccc(NCc2n[nH]c(=S)n2-c2cccc(Cl)c2)cc1	·	95.3	-1.6	-40.7	115.6	i	0.9
CCCOc1ccc(NC(=O)CC2Nc3ccccc3NC2=O)cc1 (centres undefined)	·	103.7	-3.8	7.1	92.1	i	0.8
CC(C)C(OC(=O)c1cc2sccc2n1C)C(=O)NCC1CCCO1 (centres undefined)	-2.4	155.1	-3.7	·	·	i	0.94
Cc1cnc(NC(=O)C2=C(O)c3ccccc3S(=O)(=O)N2C)s1	-0.7	98.0	-14.4	18.2	105.3	i	0.83&0.68
O=C(NCc1n[nH]c(=S)n1-c1cccc(C(F)(F)F)c1)c1ccc(S(=O)(=O)N2CCCC2)cc1	·	91.0	-0.3	·	·	i	1.11
O=C(O)CCS(=O)(=O)c1cccc2cccnc12	-1.9	89.2	-3.2	-54.8	179.2	i	0.87
Cc1cc2ccccc2nc1SCC(=O)N1CCCC1	-1.7	103.0	1.7	21.9	82.2	i	1.02
OCCCC1CCCCN1Cc1nc(Cc2ccccc2Cl)no1 (centres undefined)	·	116.0	0.8	·	·	i	0.99
Clc1ccc(/C=N/N2CCN(Cc3ccccc3Cl)CC2)cc1	·	99.0	2.4	·	·	i	0.99
COC(=O)Cc1c(O)ccn(CCc2c[nH]c3ccccc23)c1=O	·	97.3	-8.0	-30.8	120.9	i	1.01
CCCc1nn(C)c2c1C(c1ccncc1)C(C#N)=C(N)O2 (centres undefined)	-0.4	96.0	-5.6	·	·	i	0.88
O=C(Nc1ccc(CN2CCCCC2)cc1)c1ccc(Br)o1	-0.2	103.7	8.9	10.3	146.7	i	0.993
CC(C)CC(=O)N1CCC(N2CCN(c3ccccc3)CC2)CC1	-1.2	101.5	-4.8	-10.0	121.5	i	1.05
O=C(COC(=O)c1ccccc1Br)NCCC1=CCCCC1	·	98.3	-12.7	·	·	i	1
O=C(Nc1ccccc1F)c1ccc(CNS(=O)(=O)c2cccc(C(F)(F)F)c2)cc1	-5.9	102.7	-2.4	22.9	165.7	i	0.94
Cc1cc(C)c(NC(=O)CN2C(=O)NC3(CCOc4ccccc43)C2=O)c(C)c1 (centres undefined)	-0.3	120.5	1.5	25.7	86.6	i	0.95
CCS(=O)(=O)N1CCC(C(=O)O)CC1	·	97.6	-0.6	·	·	i	0.85
Cc1ccc(CNC(=O)c2cnc(-c3ccccn3)nc2C(F)(F)F)cc1	-3.5	99.3	-9.9	-31.2	199.1	i	1.04
CSc1cccc(NC(=O)CCCOc2ccc(Cl)cc2Cl)c1	-1.6	80.6	2.8	-137.5	94.7	i	1.01
COc1ccc(S(=O)(=O)N2CC(O)CC2C(=O)Nc2cccnc2)cc1 (centres undefined)	·	104.3	·	·	·	i	0.71
CC(C)(C)c1cc[n+](/C(C(=S)NC2CC2)=C(/[O-])c2ccc(Cl)s2)cc1	-1.3	99.3	0.4	·	·	i	0.89
Cc1ccc(C)c(N2CCN(C(=O)CCCCn3c(=O)[nH]c4ccccc4c3=O)CC2)c1	-0.3	100.4	-13.7	·	·	i	0.73
CCOc1ccc(S(=O)(=O)N(C)c2ccc(OCC(=O)NCc3ccc(C(=O)OC)cc3)cc2)cc1	·	89.4	-0.4	·	·	i	1.13
O=C(c1ccccc1)c1c[nH]c2cc3c(cc2c1=O)OCO3	-1.2	23.1	-3.9	-25.0	158.9	i	1.01

Later entries.
Molecule	GALR2 agonist	RGS16-Gao HTS	PKD1 inh	INS promoter inh	INS promoter inh cell count	HSV replic up	HSV replic up primary fold
CC(=O)c1nc(N2C(=O)CC(Cc3ccc(C)cc3)C2=O)sc1C (centres undefined)	-0.1	101.5	-9.2	·	·	i	0.93
CCCCc1nc(NCc2ccccc2)c(C#N)c2c1COC(C)(C)C2	-0.2	117.2	3.5	2.8	89.3	i	0.91
CN(CC(=O)O/N=C(\N)c1ccccn1)S(=O)(=O)c1cc(Cl)ccc1Cl	-1.9	89.8	-9.5	37.9	87.6	i	0.84
COc1ccc(-c2n[nH]c(C)c2-c2ccc(Cl)cc2)c(O)c1OC	0.6	106.2	-2.5	-7.7	108.9	i	0.84
O=S1(=O)CCN(Cc2ccc(F)cc2)CC1	·	92.6	-3.3	·	·	i	0.89
Cc1cc(NC(=O)C23CCC(C)(C(=O)O2)C3(C)C)no1 (centres undefined)	-3.5	101.7	-13.5	-25.0	64.2	i	0.84
COc1ccc(/C(O)=C2/C(=O)C(=O)N(Cc3cccnc3)C2c2ccccn2)cc1 (centres undefined)	-0.4	46.1	-1.2	-100.0	126.8	i	0.88
Cc1cc([N+](=O)[O-])ccc1-c1ccc(/C=N/NC(=O)Cc2ccccc2)o1	-1.3	105.9	10.8	-12.9	142.9	i	1.08
S=C(Nc1ccccc1Cl)N(Cc1cccnc1)Cc1ccco1	·	99.7	2.2	·	·	i	0.97
CCCS(=O)(=O)N1CCCC(C(=O)NCCCN(CC)c2cccc(C)c2)C1 (centres undefined)	0.8	98.3	1.8	·	·	i	1.04
CCN1CC(CN(C)Cc2nc(-c3ccc(OC)c4ccccc34)oc2C)CC1=O (centres undefined)	·	101.9	-1.0	·	·	i	1.07
C=CCn1c(-c2ccccc2)n[nH]c1=S	-0.3	17.6	-6.3	-81.4	102.5	i	0.82
O=Cc1cn(CCC(=O)O)nc1-c1cccc(Cl)c1	·	95.4	-1.9	15.8	80.6	i	1.04
COc1ccc(C2C(C(=O)OCC(=O)NC(C)(C)C)CCC(=O)N2c2ccc(C)cc2)cc1OC (centres undefined)	-0.8	102.5	-6.1	-4.3	91.5	i	0.98
O=C1c2ccc3c4c(ccc(c24)C(=O)N1CCCCO)C(=O)N(CCCCO)C3=O	·	93.4	0.6	-23.1	83.1	i	0.93
O=C(COC(=O)c1c2c(nc3ccccc13)CCCC2)c1cccs1	0.0	126.9	-1.3	-13.6	45.0	i	0.91
Fc1ccc(-c2nc3c(Cl)cc(C(F)(F)F)cn3c2Cl)cc1	-0.9	102.1	-4.8	-23.3	51.1	i	0.99
CC(C)(C)C1CCC(=NOC(=O)c2ccc(F)cc2)CC1 (centres undefined)	·	109.7	4.4	0.0	103.6	i	0.96
CCOC(=O)N1CCN(C(=O)c2cccn3c(=O)c4cc(Br)ccc4nc23)CC1	·	106.7	-1.2	-28.6	129.8	i	0.93
Cc1cccc(CSc2nnc(CCCCCNC(=O)OC(C)(C)C)o2)c1	·	91.8	·	·	·	i	0.98
CCOc1ccc(N2C(=O)/C(=C/c3cc(OC)c(OC)c(OC)c3)N(CC(=O)OC)C2=S)cc1	0.0	92.6	-3.6	17.9	216.2	i	0.63
COc1cc(C(C[N+](=O)[O-])c2c(N)n(C)c(=O)n(C)c2=O)ccc1O (centres undefined)	·	93.0	-4.7	0.0	55.8	i	0.69
NS(=O)(=O)c1ccc(NC(=O)COC(=O)COc2cccc(C(F)(F)F)c2)cc1	·	100.2	·	·	·	i	0.97
Cc1cccc(OCCCOc2cccc3cccnc23)c1C	-1.1	107.9	4.0	·	·	i	0.8
O=c1cc(CN2CCCc3ccccc32)nc2sccn12	·	99.1	-4.7	·	·	i	1.31
COc1ccc(CNC(=O)c2cccc(N(C)C)c2)cc1	-1.7	102.8	-13.4	24.3	111.5	i	0.98
O=C1CCCC2=C1C(c1ccccc1)NC(=S)N2 (centres undefined)	·	102.1	-5.3	·	·	i	1.33
CCc1ccccc1NC(=O)CSc1nnc([C@@H](NC(=O)OC(C)(C)C)C(C)CC)o1 (some centres undefined)	-1.6	100.3	-13.4	·	·	i	0.94
O=S1(=O)CCN(Cc2cccc(Cl)c2)CC1	-0.4	103.7	-1.8	4.5	96.7	i	0.94
COC(=O)C1=C(C)N(C)C(=O)NC1c1ccsc1 (centres undefined)	·	106.9	-13.5	5.9	114.0	i	1.11

16 structures already listed, sorted by length of the SMILES, highest first:
Molecule	GALR2 agonist	RGS16-Gao HTS	PKD1 inh	INS promoter inh	INS promoter inh cell count	HSV replic up	HSV replic up primary fold
CCc1ccccc1NC(=O)CSc1nnc([C@@H](NC(=O)OC(C)(C)C)C(C)CC)o1 (some centres undefined)	-1.6	100.3	-13.4	·	·	i	0.94
COc1cc(C(C[N+](=O)[O-])c2c(N)n(C)c(=O)n(C)c2=O)ccc1O (centres undefined)	·	93.0	-4.7	0.0	55.8	i	0.69
CCOC(=O)N1CCN(C(=O)c2cccn3c(=O)c4cc(Br)ccc4nc23)CC1	·	106.7	-1.2	-28.6	129.8	i	0.93
CN(CC(=O)O/N=C(\N)c1ccccn1)S(=O)(=O)c1cc(Cl)ccc1Cl	-1.9	89.8	-9.5	37.9	87.6	i	0.84
CCN1CC(CN(C)Cc2nc(-c3ccc(OC)c4ccccc34)oc2C)CC1=O (centres undefined)	·	101.9	-1.0	·	·	i	1.07
COc1ccc(-c2n[nH]c(C)c2-c2ccc(Cl)cc2)c(O)c1OC	0.6	106.2	-2.5	-7.7	108.9	i	0.84
CC(=O)c1nc(N2C(=O)CC(Cc3ccc(C)cc3)C2=O)sc1C (centres undefined)	-0.1	101.5	-9.2	·	·	i	0.93
Cc1cccc(CSc2nnc(CCCCCNC(=O)OC(C)(C)C)o2)c1	·	91.8	·	·	·	i	0.98
Fc1ccc(-c2nc3c(Cl)cc(C(F)(F)F)cn3c2Cl)cc1	-0.9	102.1	-4.8	-23.3	51.1	i	0.99
CC(C)(C)C1CCC(=NOC(=O)c2ccc(F)cc2)CC1 (centres undefined)	·	109.7	4.4	0.0	103.6	i	0.96
S=C(Nc1ccccc1Cl)N(Cc1cccnc1)Cc1ccco1	·	99.7	2.2	·	·	i	0.97
O=Cc1cn(CCC(=O)O)nc1-c1cccc(Cl)c1	·	95.4	-1.9	15.8	80.6	i	1.04
O=c1cc(CN2CCCc3ccccc32)nc2sccn12	·	99.1	-4.7	·	·	i	1.31
Cc1cccc(OCCCOc2cccc3cccnc23)c1C	-1.1	107.9	4.0	·	·	i	0.8
O=S1(=O)CCN(Cc2ccc(F)cc2)CC1	·	92.6	-3.3	·	·	i	0.89
C=CCn1c(-c2ccccc2)n[nH]c1=S	-0.3	17.6	-6.3	-81.4	102.5	i	0.82

New compounds follow
Molecule	GALR2 agonist	RGS16-Gao HTS	PKD1 inh	INS promoter inh	INS promoter inh cell count	HSV replic up	HSV replic up primary fold
COc1ccc(-c2cc(C(=O)N(C)Cc3ccccc3)no2)cc1OC	0.9	68.9	-5.8	·	·	i	0.97
CNC(=S)N/N=C(\C)c1ccccc1	·	109.4	·	·	·	i	1.11
COc1cc(-c2nnc(SC/C=C/c3ccccc3)n2N)cc(OC)c1OC	-2.7	100.7	-6.9	2.9	151.5	i	0.9
CCOC(=O)c1csc(COc2ccc(OC)cc2)n1	·	108.0	·	·	·	i	0.97
Nc1nnc(-c2ccco2)s1	-0.8	102.4	3.3	-14.3	113.9	i	1
COc1ccc(CCCc2nc3ccccc3[nH]2)cc1	·	101.6	·	·	·	i	1.03
C/C(=N\NS(=O)(=O)c1cccc([N+](=O)[O-])c1)c1cccnc1	·	101.3	-4.0	26.7	103.2	i	1.07
O=c1nc2n(c3ncccc13)CCC2	-2.8	96.3	-0.3	·	·	i	0.94

Rows were taken by chance. About 1.1% of those tested had a hit in this group.
